High-throughput results: PubChem, several laboratories
Vif A3G – HIV-1 Vif–A3G interaction blockers – biochemical, TR-FRET, GST-Vif 1-94, biotin-A3G peptide, dose response retest, primary screen (AID 1117319); inhibition, %, or IC50 in µM where a hit was titrated; 260,000 tested, 0.57% active; TR-FRET GST-Vif / biotin-A3G peptide binding; higher % means a stronger effect; test concentration not given here; strong numbers were not always called active;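 active = above the screen mean plus three standard deviations and confirmed in dose response; inconclusive = results disagree or hit not tested in dose response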;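 note: Vif residues 1-94 fused to GST binding biotinylated APOBEC3G peptide 110-148; 0% = full assay without inhibitor and 100% = GST in place of GST-Vif; retest series ran down from 100 µM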
T cruzi repl – blocks replication of Trypanosoma cruzi. T. cruzi beta-gal in NIH3T3, luminescence, 90 h. inhibition, % (no concentration beside the values). 300,000 tested, 1.4% active;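 active = mean inhibition across valid replicates above about 55%, limit read from the data; inconclusive = mean below that limit but half or more replicates reach it; inactive = mean below it, under half of replicates reach it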;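 note: signal also drops with host cell toxicity which is not excluded here; 0% = plate median of DMSO wells and 100% = zero luminescence signal; higher percent means less beta-gal luminescence so fewer parasites; stock transfer was 50 nL into about 50 µL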
Calb FLC – affects C. albicans growth with fluconazole; AID 1979; growth inhibition, % (no concentration beside the values); C. albicans CaCi-2 (fluconazole-resistant clinical isolate) + fluconazole, Alamar Blue growth, 48 h; 300,000 tested, 0.57% active;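 active = most replicates above 75%; inconclusive = exactly half above 75%; inactive = most below 75%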;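 note: all wells also contain fluconazole at 8 µg/ml as a sub-toxic cotreatment; 0% = median of DMSO wells and 100% = median of geldanamycin control wells; wells of about 8 µL received 7.5 nL stock; the first replicate is given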
Beta cell apopt – blocks beta cell apoptosis. AID 435005. INS-1E cytokine-induced death, ATP luminescence, 48 h; percent of positive-control rescue, neutral wells zero. 300,000 tested, 0.8% active. protection from apoptosis, % (test concentration not listed);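 active = all replicates at 75% or more, or half of them and the mean; inconclusive = half reach 75% but not the mean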;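 note: 0% = cytokine-treated negative control wells and 100% = positive control rescue; higher means more ATP so stronger rescue from cytokine killing; wells of about 40 µL received 100 nL stock; the first replicate is given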
rRNA inh HTS – inhibits bacterial ribosomal RNA function over humanized ribosomes; E. coli WT GFP vs humanized-ribosome RFP mutants, fluorescence, 24 h; stronger effect = lower value; DMSO median 0, no signal -100; AID 720706; 350,000 tested, 1.6% active; GFP signal change (wild-type ribosome), % (concentration not given with the values);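 active = significant combined selectivity score with lowered wild-type GFP, culture density cut under 30%, mutant RFP and density less affected; inactive = any of these conditions unmet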; note: one replicate is shown; some compounds called inactive have numbers as strong as hits
Bfl-1 A1 inh – inhibitors of the anti-apoptotic protein A1, read as caspase activation; caspase activation, % (no concentration beside the values); MEF A1-2A-BIM cells, Caspase-Glo 3/7 luminescence, 3 h; percent of clofoctol response, vehicle zero; AID 2462; 330,000 tested, 0.066% active;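 active = over half of replicate activation scores above 10%, or exactly half above 10 with the replicate mean above 10; inconclusive = replicate mean below 10 yet half the replicates above 10; inactive = over half of replicates below 10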;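 note: wells of about 30 µL received 50 nL stock; many hits fall short of the cut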
RanGTP-Imp inh – inhibitors of RanGTP-importin-beta interaction, primary screen, biochemical, FRET, CFP-Ran, YFP-importin-beta, homogeneous | cell-free CFP-Ran/YFP-importin-beta FRET ratio | inhibition, % (test concentration not listed) | 300,000 tested, 1.1% active | AID 2216;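 active = most replicates above 15%; inconclusive = exactly half above 15%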;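 note: 0% = DMSO wells and 100% = Ran loaded with GDP instead of GTP; wells of about 40 µL received 100 nL stock; the first replicate is given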
MLL AF4-AF9 inh – blocks AF4 peptide binding to human AF9; P42568; AlphaScreen, biotin-AF4 peptide binding to FLAG-AF9; inhibition, % at 10 µM; 350,000 tested, 0.47% active; AID 651704;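 active = every replicate reaching a set inhibition limit, whatever the replicate mean, cut at about 25% in these data; inconclusive = mean inhibition reaches that limit but some replicates miss it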;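 note: 0% = plate neutral control median and 100% = total signal loss; the record names both 10 and 1 µM as test concentration; the first replicate is given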
Target sequence (P42568 whole entry, looked up): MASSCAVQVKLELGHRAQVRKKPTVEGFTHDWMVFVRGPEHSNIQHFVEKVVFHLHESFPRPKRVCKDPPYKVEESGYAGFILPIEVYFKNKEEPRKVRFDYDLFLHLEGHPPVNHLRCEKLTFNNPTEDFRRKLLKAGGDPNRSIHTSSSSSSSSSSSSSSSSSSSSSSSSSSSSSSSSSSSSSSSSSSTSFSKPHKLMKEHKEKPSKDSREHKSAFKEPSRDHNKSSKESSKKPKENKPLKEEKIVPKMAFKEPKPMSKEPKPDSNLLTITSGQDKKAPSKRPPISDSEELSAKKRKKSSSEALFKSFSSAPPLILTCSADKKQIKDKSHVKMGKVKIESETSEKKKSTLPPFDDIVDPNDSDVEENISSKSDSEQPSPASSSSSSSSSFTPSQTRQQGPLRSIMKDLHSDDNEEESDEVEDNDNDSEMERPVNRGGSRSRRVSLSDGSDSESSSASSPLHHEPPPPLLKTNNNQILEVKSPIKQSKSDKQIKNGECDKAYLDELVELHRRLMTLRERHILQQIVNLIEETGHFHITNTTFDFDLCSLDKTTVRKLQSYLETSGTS
rRNA inh HTS OD600 – second read-out of rRNA inh HTS, no call of its own (marks repeat the call); OD600 change, %; measured here: OD600 growth;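 optical density of the mix in the first replicate; 0 = DMSO median and -100 = no signal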
rRNA inh HTS RFP – also measured in rRNA inh HTS; calls as there; RFP signal change, %; measured here: RFP humanized mutant strains;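 first replicate; 0 = DMSO median and -100 = no signal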
* = called active by the depositor; u = inconclusive; x = not tested or not shown. Not all compounds are listed. The share of hits here may be higher or lower than overall.

SMILES | Vif A3G | T cruzi repl | Calb FLC | Beta cell apopt | rRNA inh HTS | rRNA inh HTS OD600 | rRNA inh HTS RFP | Bfl-1 A1 inh | RanGTP-Imp inh | MLL AF4-AF9 inh
COc1ccccc1N1CCN(C(=O)C2CCCN(S(=O)(=O)c3ccc4c(c3)CCCN4C(C)=O)C2)CC1 (stereo unspecified) | x | -6 | -3 | 30 | 1 | -20 | 6.2 | -0.7 | 0.2 | 6.2
COc1ccc(C(=O)NC2CC2)cc1OC1CCN(Cc2ccc(F)c(F)c2)CC1 | x | -5 | -1 | 2 | 6 | 9 | 1.4 | 0.9 | 4.4 | -15
N/C(=N\OC(=O)CCC1CCCC1)c1cccc([N+](=O)[O-])c1 | 27% | -3 | -6 | -3 | -4 | -6 | -5.1 | -1.5 | -0.6 | 4.4
COC(=O)c1ccnc(/C=N/O)c1 | 11% | 4 | 1 | -1 | x | x | x | -0.3 | 0.7 | x
CCOc1cc(C)nc(N2CCC(C(=O)Nc3ccccc3OCC)CC2)n1 | -3% | 16 | -17 | 0 | x | x | x | 1.2 | -4.7 | x
COc1ccc(C(=O)C(CN2CCCC2)c2ccccc2)cc1 (stereo unspecified) | -3% | 3 | 80* | -46 | x | x | x | -0.8 | 6.3 | x
COC(=O)C1(CC2CC(c3ccccc3)=NO2)CCN(C(=O)OC(C)(C)C)CC1 (stereo unspecified) | x | 18 | 6 | 1 | -15 | -30 | -3.4 | -0.4 | -3.9 | -2.5
O=S(=O)(NCc1ccccc1F)c1cccc(S(=O)(=O)N2CCOCC2)c1 | 5% | 7 | -3 | -3 | -7 | -8 | 1.6 | -0.9 | 0.6 | -0.1
c1ccc([C@H]2CC3C[C@@H](c4ccccc4)N2O3)cc1 | 2% | 12 | -5 | 0 | x | x | x | 0.6 | -1.6 | x
Cc1cc(F)ccc1S(=O)(=O)N1CCCOC1CNC(=O)C(=O)NCC(C)C (stereo unspecified) | -4% | -4 | -2 | -26 | 2 | 5 | 0.2 | -0.1 | u | 3.2
COc1ccc(NC(=O)CN(C)CC(=O)Nc2cccc(C(F)(F)F)c2)cc1 | -5% | -5 | -37 | -4 | -36 | -34 | -4.3 | 1.0 | 0.0 | -2.0
COc1ccc(S(=O)(=O)NC(C)C(=O)Nc2cccc(C(C)=O)c2)cc1 (stereo unspecified) | 2% | -2 | 9 | -6 | x | x | x | -0.4 | 1.4 | x
O=C(NC1CCCCCC1)C(=S)NC1CCCCC1 | -16% | 17 | -1 | 0 | 25 | 12 | 0.4 | 0.1 | -1.9 | -3.2
O=C(O)c1cc(-c2cccs2)nn1-c1ccccc1 | -1% | -5 | 0 | -3 | -10 | 0 | -9.5 | -0.2 | 5.8 | -1.3
CC(=O)COc1nc2c(c(-c3ccco3)c1C#N)CCc1ccccc1-2 | u | 26 | 1 | 3 | x | x | x | -1.3 | 11 | x
CC(C)C(NC(=O)c1c(F)cccc1F)C(=O)NC1CC(C)(C)NC(C)(C)C1 (stereo unspecified) | x | -6 | -4 | -5 | 8 | 17 | 0.6 | -0.8 | 4.1 | -0.1
Cc1ccc(-c2ccccc2NC(=O)C2C3C=CC(C3)C2C(=O)O)o1 (stereo unspecified) | 4% | 3 | 0 | -1 | x | x | x | -0.1 | 1.6 | x
Cc1ccccc1NC(=S)NCCc1ccccc1 | -3% | -6 | -11 | 6 | x | x | x | 0.8 | 3.4 | x
O=P(O)(O)C(O)C(F)(F)C(F)(F)C(F)(F)C(F)F (stereo unspecified) | -5% | -10 | -4 | -2 | x | x | x | -1.6 | -4.4 | x
O=C(c1ccccn1)N1CCN(S(=O)(=O)c2ccc3ccccc3c2)CC1 | -6% | -8 | -1 | -2 | 8 | 0 | 2.8 | 0.3 | -0.6 | -1.8
S=C(NCc1ccccc1)Nc1cccc2ccccc12 | 4% | 1 | -26 | -2 | 5 | -4 | -1.4 | 0.0 | -1.0 | 3.2
Cc1cc(OC(=O)N2CCCCC2)cc(C)c1Cl | 4% | 15 | -15 | 1 | x | x | x | -0.1 | -2.2 | x
Cc1cc(Cl)ccc1NC(=S)NCc1ccco1 | 12% | 6 | -14 | -7 | 6 | 10 | 1.3 | 0.3 | 1.8 | 1.0
Cc1cc(Nc2ncc(Cl)cc2Cl)n(-c2ccccn2)n1 | u | 32 | -4 | x | 9 | 9 | 5.2 | x | -1.7 | x
O=C1C=C(NCc2ccco2)CC(c2ccc(Cl)cc2)C1 (stereo unspecified) | 8% | -15 | 0 | 15 | x | x | x | 1.5 | -1.8 | x
COc1ccc(OCCC(=O)N2CCOCC2)cc1 | 5% | -25 | -17 | -3 | 19 | 16 | 2.3 | -0.2 | 0.7 | -0.2
O=C(c1ccc(CNS(=O)(=O)c2ccc(Br)cc2)cc1)N1CCCCC1 | -6% | 4 | -6 | 3 | 0 | 1 | 0.2 | 1.7 | 0.7 | -1.9
COC(=O)CSc1[nH]c2ccc(Br)cc2c1[N+](=O)[O-] | u | -15 | 21 | 4 | 3 | 4 | -1.2 | -0.3 | 1.4 | -14
Cc1ccn2cc(C(=O)NC3CCN(Cc4ccccc4)CC3)nc2c1 | 7% | -27 | -12 | -1 | 4 | 3 | 3.2 | -0.2 | -1.7 | 1.9
COc1ccccc1OCC(=O)NCCS(=O)(=O)N1CCN(c2ccccc2)CC1 | 2% | 2 | -3 | 3 | 2 | 4 | -1.7 | 0.6 | -0.1 | -1.0
O=S(=O)(c1ccccc1)C1CON(Cc2ccccc2)C1c1ccccc1 (stereo unspecified) | -2% | -3 | 5 | 2 | 4 | -7 | -2.2 | 0.6 | 3.2 | -4.2
O=C1CCCN1CCCNS(=O)(=O)c1ccc(F)cc1F | u | -4 | 3 | -8 | 1 | 0 | 6.5 | 0.5 | 2.2 | -36
N#Cc1ccc2nc3c(nc2c1)CCCC3 | -1% | -14 | -4 | x | -4 | -3 | -4.3 | 0.5 | -3.5 | 4.4
C=CCN(CC=C)Cc1ccc(C(=O)OC)o1 | 1% | -10 | 4 | 0 | x | x | x | 1.5 | -0.9 | x
CCCOc1ccc(C=Nc2ccc(OC)c(S(=O)(=O)N3CCOCC3)c2)c(O)c1 | 20% | x | x | -3 | 11 | 11 | -0.7 | -0.7 | x | 2.9
CCOC(=O)c1cc(-c2csc(Nc3c(C)cc(C)cc3C)n2)on1 | -4% | x | 14 | x | 7 | -2 | 1.6 | -0.2 | 0.1 | -1.0
COCCNC(=O)C(c1cccs1)N(C(=O)Cn1nnc2ccccc21)c1ccc(OC)cc1 (stereo unspecified) | 3% | -9 | 8 | -5 | x | x | x | -0.4 | 3.9 | x
COc1ccc(CCN2C(=S)N(C)C(=O)C2CC(=O)Nc2ccc(F)cc2)cc1 (stereo unspecified) | -1% | 23 | -6 | x | -14 | -8 | 1.3 | -1.2 | -1.8 | 5.6
COc1ccc(NC(=O)CNC(=O)c2nn(-c3ccc(OC)c(OC)c3)c(=O)c3ccccc23)c(OC)c1 | x | -7 | -11 | 9 | 1 | 13 | 3.3 | -0.6 | 1.3 | 0.8
CC(=N[C@@H]1CCCC[C@H]1N=C(C)c1ccccc1O)c1ccccc1O | 14% | -9 | -1 | -2 | 19 | 1 | -1.6 | -0.7 | 2.3 | -3.0
Cn1c(SCC(=O)Nc2ccc(NC(=O)c3ccccc3F)cc2)nnc1-c1ccncc1 | x | 3 | 3 | 1 | x | x | x | 0.2 | 8.6 | x
COC(C[C@@H]1O[C@@H]1[C@H](O)[C@H](C)OCc1ccccc1)OC | -2% | -17 | -6 | x | 8 | 8 | -4.9 | x | -3.1 | x
Cc1ccc(C(C(=O)NC2CCCCC2)N(CCCN2CCOCC2)C(=O)c2snc(C(N)=O)c2N)cc1 (stereo unspecified) | x | 6 | 0 | -17 | 12 | 2 | -2.3 | -0.5 | 2.3 | -3.1
C=CCn1cc(C(=O)NCc2ccco2)c(=O)c2cc(S(=O)(=O)N3CCCCCC3)ccc21 | 9% | -14 | -10 | 19 | x | x | x | 1.8 | 0.1 | x
Cc1ccc(Cl)cc1-c1ccc(C=Nc2ccc(N3CCOCC3)cc2)o1 | -18% | 50 | 2 | -6 | -13 | -3 | -2.0 | -0.1 | 0.4 | -39
O=C1CCN(CCCc2ccccc2)CCN1CCO | x | -18 | -2 | 5 | 7 | -3 | -7.4 | -0.7 | 1.0 | -7.6
CCc1nnc(NC(=O)c2cc(S(=O)(=O)N3CCCCC3)ccc2C)s1 | 6% | x | x | -6 | -1 | -2 | -1.6 | 1.5 | x | -2.4
COc1cccc(/C=N/n2c(-c3cccs3)n[nH]c2=S)c1 | u | -7 | u | -10 | x | x | x | 0.5 | -0.9 | x
CCC/C(=N/NC(=O)c1cccc(Cl)c1)c1ccccc1 | x | -3 | 16 | x | x | x | x | 0.1 | -3.0 | x
O=C(CNC(=O)c1cccs1)NCCN1CCN(Cc2ccccc2)CC1 | u | -4 | -7 | -1 | x | x | x | 0.7 | -0.2 | x
COCCCn1c(SCc2nc3ccccc3c(=O)[nH]2)nc2ccccc2c1=O | -7% | 4 | 18 | 0 | x | x | x | 0.3 | 0.7 | x
Cc1ccc(S(=O)(=O)N2CCOCC2)cc1C(=O)OCC(=O)c1ccc(Br)cc1 | 14% | x | x | 8 | 1 | 9 | -1.0 | -1.9 | x | -4.7
CCN(CC(=O)NC(=O)NC1CCCCC1)Cc1nc2ccccc2c(=O)[nH]1 | -3% | -2 | 6 | 1 | x | x | x | 0.3 | -1.4 | x
